Bioassay records: PubChem BioAssay, ICCB-Longwood Screening Facility, Harvard Medical School
MenB inh – M. tuberculosis MenB inhibitors, primary screen, biochemical, absorbance; inhibition, %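 (about 12 µg/mL by stock and volumes)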; hit rate 0.43% among 100,000; 1,4-dihydroxy-2-naphthoyl-CoA synthase (Mycobacterium tuberculosis (strain ATCC 25618 / …; MenB enzyme assay, absorbance read-out; some hits fall short of the stated cut;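 active means mean of two replicates above 30%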;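 further: 0% = no compound and 100% = wells with inactive enzyme; the first replicate is given; strong numbers were not always called active; inactives centre near -10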
Target sequence (P9WNP5 whole entry, looked up): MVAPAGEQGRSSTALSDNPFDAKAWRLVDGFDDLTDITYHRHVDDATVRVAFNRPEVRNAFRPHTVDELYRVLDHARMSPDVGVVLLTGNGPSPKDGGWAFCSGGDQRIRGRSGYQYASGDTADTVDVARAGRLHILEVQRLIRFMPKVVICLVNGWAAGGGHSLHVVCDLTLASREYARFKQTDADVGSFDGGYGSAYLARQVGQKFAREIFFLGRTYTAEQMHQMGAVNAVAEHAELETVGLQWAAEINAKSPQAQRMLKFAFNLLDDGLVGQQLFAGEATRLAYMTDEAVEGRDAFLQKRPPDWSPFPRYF
Mtb MbtI inh – MbtI salicylate synthase inhibitors, primary screen, biochemical, fluorescence intensity. hit rate 0.89% among 100,000. purified MbtI enzyme, fluorescence intensity read-out. P9WFX0. AID 493033, 2011. inhibition, %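 (about 17 µg/mL by stock and volumes)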;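 active means above 50% in both replicates, above 80% if mildly self-fluorescent; inactive means the rest, strongly fluorescent compounds included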;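 further: 0% = mean of negative and 100% = mean of positive controls; one replicate is shown; some compounds called inactive have numbers as strong as hits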
PV pol inh – poliovirus RdRp elongation inhibitors, primary screen, biochemical, fluorescence polarization, total intensity; Genome polyprotein (Poliovirus type 1 (strain Mahoney)), P03300; poliovirus polymerase elongation; hits give low values; % elongation, % (compound at 16.7 µg/mL); hit rate 0.66% among 150,000; AID 588519, 2011; in the data active means % elongation below about 90%; further: some results filed as inactive read as strong as hits
Target sequence (P03300 1749-2209 limits assumed): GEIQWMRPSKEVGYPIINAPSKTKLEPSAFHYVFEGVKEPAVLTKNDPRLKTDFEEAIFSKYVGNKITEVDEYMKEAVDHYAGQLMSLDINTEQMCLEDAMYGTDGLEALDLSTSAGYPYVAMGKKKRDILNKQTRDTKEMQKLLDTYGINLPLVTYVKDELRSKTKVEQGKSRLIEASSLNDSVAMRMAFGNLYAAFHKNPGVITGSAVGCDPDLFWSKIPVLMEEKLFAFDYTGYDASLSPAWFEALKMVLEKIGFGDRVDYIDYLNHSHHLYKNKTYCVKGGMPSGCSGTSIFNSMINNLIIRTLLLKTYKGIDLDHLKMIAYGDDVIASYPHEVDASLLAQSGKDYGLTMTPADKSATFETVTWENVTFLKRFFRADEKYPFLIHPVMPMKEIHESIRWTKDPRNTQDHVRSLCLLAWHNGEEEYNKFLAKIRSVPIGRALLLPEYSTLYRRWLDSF
PV pol inh intensity – second read-out of PV pol inh, no call of its own (marks repeat the call); % elongation; measured here: total intensity read-out; formula for this scale not given here;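 total fluorescence in place of polarization; lower means less elongation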
Starred values were filed as active, the others as inactive; i = inactive; nt = no result given.

SMILES	MenB inh	Mtb MbtI inh	PV pol inh	PV pol inh intensity
Cc1cc(=O)[nH]c(N2CCN(Cc3ccccc3)CC2)n1	-5	nt	104	109
O=C(NCc1ccccc1)NC1CCCCC1	3	0	108	98
COc1ccc(C2C3(C#N)C(N)=NC(OC)(OC)C23C#N)cc1 (configuration not stated)	-13	6	102	101
CC(C)CCNC(=O)C1CCN(S(=O)(=O)N2CCCCC2)CC1	14	-12	105	106
FC(F)Oc1ccc(Cl)cc1CSc1ncccn1	-7	-9	103	106
Clc1ccc2oc(-c3cccnc3)nc2c1	-2	17	103	109
Cc1ccc2nc(C3CCCCC3)cc(C(=O)O)c2c1	18	-2	101	102
O=C1C=CC(=O)N1Nc1ccccc1	-1	-5	101	103
CC1(C)CCCC(C)(C)N1OC(=O)c1ccc(N)cc1	-56	nt	98	104
O=C(NCC1CCCO1)c1cc2c(s1)-c1ccccc1OC2 (configuration not stated)	3	105	102	99
Nn1c(SCC(=O)Nc2ccc3c(c2)OCO3)nnc1-c1ccc(Cl)cc1	4	4	97	102
COc1ccc(OC)c(CCNC(=O)NCc2noc3ccc(C)cc23)c1	-11	-15	102	104
COc1ccc(OC)c(CNc2nc3ccccc3c3nnc(C)n23)c1	-1	21	104	104
CCOC(=O)c1sc(N(Cc2ccccc2)C(=O)CSc2n[nH]c(N)n2)nc1C	-24	10	103	95
Cc1ccc(N(C)C(=O)[C@H]2[C@@H]3C[C@@H]4[C@H]2C(=O)O[C@@H]4C3)cc1	2	-12	105	107
Cc1ccc(NS(=O)(=O)c2c(C)ccc3nsnc23)cc1	-8	nt	113	113
CCOC(=O)c1c(NC(=O)CSc2nncs2)sc2c1CCC2	6	-5	105	105
C=C(C)C1CNC(C(=O)O)C1CC(=O)O (configuration not stated)	-5	-11	102	100
O=C1CC(c2ccccc2)C(=O)N1 (configuration not stated)	-20	-3	100	92
CC(C)(C)C1C/C(=C\c2ccc3c(c2)OCO3)C(=O)/C(=C/c2ccc3c(c2)OCO3)C1 (configuration not stated)	-7	nt	104	113
CCCCN=C1SCC(c2cc3ccccc3o2)=NN1C	-13	2	102	103
Cc1noc(C(=O)N2CCCc3ccccc32)c1Cl	-1	-4	101	104
CCOC(=O)N(C)CCc1cc2c(cc1C)OCO2	2	nt	103	106
O=C(NCc1ccccn1)C1C2C=CC(C2)C1C(=O)Nc1ccc(F)cc1 (configuration not stated)	-8	0	104	104
CCN(CC)c1nccs1	-8	2	97	93
Cc1cc(C)c2c(n1)nn1c(C)c(CCC(=O)O)c(C)nc21	2	7	102	98
Cc1ccccc1OCC(O)CN(Cc1ccccc1O)C1CCCCC1 (configuration not stated)	-10	-9	97	109
O=C(C1CCCO1)N(Cc1ccccc1)c1ccccc1 (configuration not stated)	-31	-1	101	101
CCOc1nc2cnccc2n(CCN2CCOCC2)c1=O	-24	2	103	102
NC(=O)CN1CCN(c2cccc(C(F)(F)F)c2)CC1	-15	-1	101	103
N#Cc1cccc(NC(=O)COC(=O)Cn2nc(-c3ccccc3)oc2=O)c1	10	-7	102	106
CC1CCCC(C)N1CCCNC(=O)C1CCN(c2ncnc3c2sc2cccc(F)c23)CC1 (configuration not stated)	0	-10	101	97
CNC(=S)c1nc2ccccc2[nH]1	-72	23	101	107
O=C(c1ccccc1)N1CCN(Cc2ccccc2)CC1	-42	-11	101	98
O=C(c1ccc(F)cc1)N1CCc2ccccc2C1	-16	nt	85*	92*
Cc1cc(C=C(C#N)C#N)c(C)n1-c1ccc(S(N)(=O)=O)cc1	-117	14	101	106
C/C(CC(C)(C)C1CCCCC1)=N\O	-1	-5	99	94
Cc1[nH]c(SCC(=O)Nc2cccc(C#N)c2)nc1Cc1ccccc1	-26	-4	103	102
CCN1CCC2(CC1)Oc1ccccc1C1CC(c3ccccc3)=NN12 (configuration not stated)	-14	-36	104	110
CCOc1cccc(Nc2ccc(-c3ccc(OC)cc3)nn2)c1	0	-1	101	101
O=C(O)/C=C/c1cc(F)cc2c1OCOC2	9	99	100	107
Cc1ccc(NC(=O)Nc2ccc(-c3cc(Cl)ccc3Cl)o2)cc1	-6	-3	99	111
CCCNCc1ccccc1	32*	-2	99	110
CCOC(=O)c1sc2c(OC)c(Br)ccc2c1NC(C)=O	-8	nt	102	109
CN(C)c1ccc(C(=NO)c2ccc(N(C)C)cc2)cc1	-58	nt	102	105
CCOC(=O)Cn1nnc(-c2ccccc2)n1	-6	-9	99	98
O=S(=O)(Nc1nc2ccccc2nc1N1CCCC1)c1ccccc1	-16	-6	102	100
COc1cc2c(cc1OC)C1C(C(=O)NCC3COc4ccccc4O3)c3ccccc3C(=O)N1CC2 (configuration not stated)	-7	6	100	100
CC1=CC(C)=NC2=C(c3ccccc3)S/C(=C3/C(=O)N(C)C(=S)N3C)N12	9	16	101	98
Cc1ccc(-c2nn3c(C)nnc3c3ccccc23)cc1S(=O)(=O)N1CCCC1	-23	22	100	104
CCC(OC(=O)C1=Cc2ccccc2OC1)C(=O)NC1CCCC1 (configuration not stated)	-46	-8	103	104
CN(C)C(=O)CCCc1nc(-c2ccc(Cl)cc2)no1	-18	-8	104	108
O=C(c1cccc(Br)c1)c1nccn1-c1ccccn1	nt	-9	100	100
CCCCn1c(N)c(N(C)C(=O)CSc2nnc(-c3ccc(F)cc3)o2)c(=O)[nH]c1=O	-8	-11	108	110
Cc1cc(C)n2ncc(C(=O)Nc3ccc(C)c(C)c3)c2n1	29	11	100	99
O=C(CSc1nnnn1C1CC1)N1c2ccccc2SCC1c1ccccc1 (configuration not stated)	-1	-6	99	95
O=C(Nc1sccc1C(=O)NC1CCCC1)c1ccc(Br)s1	-1	-1	105	109
O=C(O)CCNc1nc2ccccc2s1	7	nt	102	106
CCOC(=O)Cc1n[nH]c(=S)n1C1CCCC1	9	13	106	100
CC(C)CNC(=O)c1cc(-c2ccc(F)cc2)no1	6	-2	101	101

(continued)
SMILES	MenB inh	Mtb MbtI inh	PV pol inh	PV pol inh intensity
Cc1nnc(SCC(=O)N(C)Cc2ccccc2)n1Cc1ccccc1	-16	-6	103	105
CC(C)Sc1nc2[nH]ncc2c(=O)[nH]1	9	11	100	106
CSc1nc(-c2ccccc2)c2cc(Cl)ccc2n1	-34	1	103	107
COCCCn1cnc2oc3nc4ccccc4nc3c2c1=O	3	100	131	143
O=C(c1ccc(Cl)cc1)n1cc2c(n1)-c1cc(Cl)ccc1SC2	6	16	104	100
CCOC(=O)c1nn(-c2ccc(C(F)(F)F)cc2)cc(Sc2nnc(C(F)(F)F)n2C)c1=O	-16	-6	101	103
C/C=C/c1ccc(OCC(O)CN(C)C2CCCCC2)c(OC)c1 (configuration not stated)	-16	4	101	108
CCCCN1C(=O)C2(/C(=C(/O)c3ccc(C)c(F)c3)C(=O)C(=O)N2CCN(C)C)c2ccccc21 (configuration not stated)	-6	9	99	102
N#CCC(=O)N=Cc1ccc(Cl)cc1Cl	-14	12	101	99
Cc1ccc(CNCc2ccncc2)cc1	6	nt	102	112
CCC(C)(C)c1ccc(Oc2ccc(NC(=O)CSc3cccc[n+]3[O-])cc2)cc1	nt	-9	100	94
CC(C)(C)c1cn2c3ccccc3nc2n1CCN1CCCC1	-6	nt	97	91
O=C(Cn1cnc(S(=O)(=O)N2CCCCC2)c1)NCCc1ccccc1	-14	-3	102	104
C=CC(=O)NC(C)(C)CCN1CCOCC1	4	nt	103	101
O=C1NC2=C(C(=O)OC2)C(c2ccc(O)cc2)N1 (configuration not stated)	-17	5	106	107
CCn1cc(S(=O)(=O)CC(=O)Nc2ccc(C)cc2)c2ccccc21	-16	1	102	101
Cc1ccc(C)c(OCCSc2ncccn2)c1	-9	6	105	102
CCCOC(=O)CSc1nc(N)c(C#N)c(-c2ccc(C)cc2)c1C#N	-22	51	102	104
CC(C)(C)C(C)(C#N)Nc1ccc(Cl)cc1 (configuration not stated)	-1	6	102	105
Cc1oc2cc(O)ccc2c(=O)c1Oc1ccc(-c2ccccc2)cc1	nt	-93	103	105

Entries of single compounds as entered above.
C=CC(=O)NC(C)(C)CCN1CCOCC1 is entered as MenB inh: 4; Mtb MbtI inh: nt; PV pol inh: 103; PV pol inh intensity: 101
C/C=C/c1ccc(OCC(O)CN(C)C2CCCCC2)c(OC)c1 (configuration not stated) is entered as MenB inh: -16; Mtb MbtI inh: 4; PV pol inh: 101; PV pol inh intensity: 108

Following part.
SMILES	MenB inh	Mtb MbtI inh	PV pol inh	PV pol inh intensity
O=C(CN1C(=O)C2CC=CCC2C1=O)OCc1cc(=O)n2cc(Br)ccc2n1 (configuration not stated)	7	-3	106	111
O=c1c2ccccc2nc2n1-c1ccccc1CCC2	-78	-7	103	102
Cc1c(-c2ccc(Br)cc2)c(=O)oc2ccccc12	-5	nt	105	109
Cc1nc(C)c(C(=O)NCCC(c2ccccc2)c2ccccc2)o1	-4	13	100	104
CC(NC(=O)c1cn(-c2ccc(F)cc2)nn1)c1cccs1 (configuration not stated)	15	-17	102	103
CCCn1c(NC(=O)CCNC(C)=O)nc2ccccc21	-4	2	104	108
c1ccc2c(c1)CC1(CCCCC1)n1nnnc1-2	-60	-6	107	99
Cc1ccc(C(=O)c2nsc(Cl)c2Cl)cc1	11	nt	96	101
Cc1cc(C(=O)OCC(=O)C(C)(C)C)c2ccccc2n1	-2	-6	101	105
O=C(NC12CC3CC(CC(C3)C1)C2)C1=COCCO1	nt	-13	101	107
O=C1c2ccccc2C(NCCc2ccccc2)N1CCc1ccccc1 (configuration not stated)	-12	nt	111	99
CCc1ccc(C(=O)Nc2ccc(N(CC)CC)cc2C)cc1	-22	1	99	101
O=C(COc1ccccc1)NCCN1CCCC1	-7	nt	105	113
COc1ccc(NC(=O)COc2ccc(C)c(C)c2)cn1	9	-1	101	110
Cc1cc(C(=O)OCC(=O)NC2CCCC2)c(C)n1-c1ccccc1	nt	-11	102	106
Cc1cc(OCc2cccc(C(F)(F)F)c2)c2c3c(c(=O)oc2c1)CCC3	-12	-8	101	97
c1coc(C2Nc3c(ccc4ccccc34)C3OCCC23)c1 (configuration not stated)	-30	i	103	104
CCOC(=O)c1oc2ccccc2c1COC(=O)C1COc2ccccc2O1 (configuration not stated)	-36	1	104	109
CCC(=O)Nc1cccc(NC(=O)c2cccs2)c1	3	5	102	102
CNCc1sccc1C	9	-2	101	101
Cn1c(CCC(=O)Nc2ccc(N3CCOCC3)cc2)nc(=O)c2ccccc21	4	10	104	106
c1ccc(Cn2c(CN3CCOCC3)nc3ccccc32)cc1	-54	4	102	103
O=C(COc1ccc(-c2nnco2)cc1)c1ccc[nH]1	-25	0	110	127
CCn1cnc2sc(C(=O)N(Cc3ccc(N(C)C)cc3)Cc3ccco3)c(C)c2c1=O	-31	1	101	93
C=CCn1c(CNC(=O)c2ccco2)nnc1SCc1nc2ccccc2c(=O)[nH]1	-26	-14	100	102
CC(=O)Nc1ccc(NC(=O)C(C)OC(=O)c2n[nH]c(=O)c3ccccc23)cc1 (configuration not stated)	2	1	104	104
CCCn1nnc(NC(=S)NC(=O)c2cccs2)n1	-12	23	101	101
N#CCN(CC#N)C(=O)c1cccc(C(=O)N(CC#N)CC#N)c1	-19	nt	113	114
Cc1cccc(N(C)c2nc3ccccc3n3c(C)nnc23)c1	-17	20	100	104
O=C(COc1ccc(Cl)cc1)Nc1ccc(Cn2ccnc2)cc1	2	-16	103	104
CCSc1nc2ccccc2n1C(=O)CCC(=O)O	5	-3	102	105
CC(C)Cn1c(SCC(=O)Nc2ccccc2)nc2ccccc21	-17	-9	103	112
Cc1nn(-c2ccccc2)c2c1C(C(F)(F)F)(C(F)(F)F)N=C(N1CCOCC1)O2	9	-7	102	102
CCN(CC)c1ccc(CN2CCc3ccccc3C2)cc1	0	-9	101	101
c1cc(-c2nc3cc(Cc4ccc5oc(-c6ccncc6)nc5c4)ccc3o2)ccn1	-6	-2	103	102
C=CCSc1nc2ccc(N=Cc3cc(Cl)ccc3O)cc2s1	-17	9	52	196
CN(C)C(=O)COc1ncnc2ccc(Br)cc12	-21	-9	105	104
N#Cc1c(SCc2ccccc2Cl)nc2c(c1C(F)(F)F)CCc1occc1-2	-27	-69	105	122
Nc1ccccc1SCc1ccccc1	-27	21	105	98
O=C(NCCSCc1ccco1)c1ccc2c(c1)S(=O)(=O)c1ccccc1C2=O	-12	2	103	102
CCOc1ccc2c(c1)sc(=NC(=O)CN1C(=O)CCC1=O)n2C	-2	17	99	103
Cc1nc(SCC(=O)Nc2ccc(S(=O)(=O)N3CCOCC3)cc2)n(C2CCCCC2)c1C	-4	16	105	120
CC(C)=C=CCC(C)O (configuration not stated)	-112	-4	105	102
CCCc1cc(=O)[nH]c(Nc2ccc(CC)cc2)n1	6	-9	101	103
CCNC(=S)N1CCN(Cc2ccccc2)CC1	2	-7	105	99
